Screening results from PubChem.
CtBP-E1A inh: blocks the CtBP interaction with E1A; 340,000 compounds, 0.49% hits; AID 651724; AlphaScreen GST-E1A/His-CtBP binding, 1536-well; active compounds read low; control for the full effect not named in the record; activity change, % (concentration not given with the values); in the data active means activity change below about -65%; inconclusive means about -30% to -65%; inactive means above about -30%; also: % is scaled to controls: 0 for no effect and ±100 for the full control effect
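Homogeneous bead-based format: GST-tagged E1A captured on glutathione donor beads, His-tagged CtBP on nickel acceptor beads; compounds precede bead addition by 2 h at 37 °C.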
D2 PAM: human D2 receptor positive allosteric modulation. DiscoveRx D2 beta-arrestin cells, luminescence, 90 min; 100% = 57 uM dopamine signal. potentiation, % (concentration not given with the values). 360,000 compounds, 0.23% hits. AID 624464; active = potentiation of 50% or more; inconclusive = 30% to 50%; inactive = 30% or less;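 also: tested on top of an EC20 dose of dopamine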
Target sequence (P14416 whole entry, looked up): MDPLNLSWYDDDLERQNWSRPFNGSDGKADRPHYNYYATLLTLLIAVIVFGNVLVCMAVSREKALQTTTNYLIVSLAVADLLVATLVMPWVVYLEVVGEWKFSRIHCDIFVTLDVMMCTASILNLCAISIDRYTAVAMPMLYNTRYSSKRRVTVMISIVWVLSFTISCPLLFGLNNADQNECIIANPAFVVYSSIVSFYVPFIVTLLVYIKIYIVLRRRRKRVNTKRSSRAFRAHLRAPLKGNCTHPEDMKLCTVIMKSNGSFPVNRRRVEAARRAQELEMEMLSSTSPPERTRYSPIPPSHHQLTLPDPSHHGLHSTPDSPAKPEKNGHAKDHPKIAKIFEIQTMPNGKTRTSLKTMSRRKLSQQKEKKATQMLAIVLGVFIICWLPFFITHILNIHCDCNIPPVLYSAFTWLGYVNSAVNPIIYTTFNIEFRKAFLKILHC
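D2 cells co-treated with compound plus 50 nM dopamine (EC20) for 90 min at 37 deg C to detect potentiation. Beta-arrestin recruitment was read as enzyme-fragment luminescence after 1 h at ambient temperature. Full response was set by 57 uM dopamine.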
Six1-Eya2 inh: blocks human Six1 binding to Eya2; Q15475+O00167; AlphaScreen GST-Six1/His-Eya2 binding, biochemical; active compounds read low; control for the full effect not named in the record; activity change, % (no concentration beside the values); 360,000 compounds, 0.56% hits; in the data active = activity change below about -65%; inconclusive = about -30% to -65%; inactive = above about -30%; also: % is scaled to controls: 0 for no effect and ±100 for the full control effect
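Compounds are tested against tagged Six1 and Eya2 proteins bridged by glutathione donor and nickel acceptor beads; after a one-hour incubation at 37 °C without light, AlphaScreen emission is recorded.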
D2 agonist: activates the human D2 dopamine receptor; 360,000 compounds, 0.084% hits; activation, % (no concentration beside the values); DiscoveRx PathHunter D2 beta-arrestin, luminescence, 90 min; 100% = 57 uM dopamine signal; P14416; in the data active = activation above about 40%; inconclusive = about 15% to 40%; inactive = below about 15%; also: compound concentration not given in the record; the text of the record calls up to 30% inactive
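Agonist mode: compounds alone added to overnight-plated D2 PathHunter cells for 90 min at 37 C, with 57 uM final dopamine (EC100) defining full response. Beta-arrestin recruitment detected by chemiluminescent reagent, read after 1 h at ambient temperature.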
TRPV1 PAM: potentiators of human vanilloid receptor 1 (TRPV1); Q8NER1; TRPV1-expressing cells, Fluo-8 calcium influx, capsaicin EC20 potentiation; host cell line not named in the record; control for the full effect not named in the record; potentiation, % at 8.33 µM; 320,000 compounds, 0.02% hits; AID 540277; active means potentiation above 80%; inconclusive means 30% to 80%; inactive means below 30%; also: 0% is about no effect
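Cells expressing TRPV1 were dye-loaded with Fluo-8 and read kinetically: 10 s baseline, 3 min after compound (agonist portion), then 2 min after EC20 capsaicin (allosteric enhancer portion). Calcium-bound dye fluorescence at 480/520 nm.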
Sfp inh: inhibitors of Bacillus subtilis Sfp phosphopantetheinyl transferase | Q9F4F7 | Biochemical Sfp PPTase activity, qHTS | Potency, µM, without a hit: max response, negative = inhibition, most hits filed as inhibitors | 310,000 compounds, 3.5% hits | AID 1490; active = well fitted inhibition curve with a large enough effect; inconclusive = small, poorly fitted or top-dose-only effect, or another doubt; inactive = no such curve, though single readings can be large or run the other way;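 also: the enzyme is Sfp with the accession as filed and its product quenches rhodamine fluorescence; potency is read from the fitted curve at half-maximal effect; 0% = enzyme reaction without inhibitor and -100% = no enzyme wells; top concentration of the series not given in the record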
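Buffer: 50 mM Hepes-Na pH 7.6, 10 mM MgCl2, 0.01% Nonidet P-40, 0.01% BSA. Enzyme 15 nM, pre-exposed to compound 15 min; substrates then added and fluorescence change tracked over 30 min.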
PINK1 expr mod: modulators of PINK1 expression | PINK1 immunofluorescence, high-content cytometry, 24 h | Potency, µM (series often up to 76.6 µM), for the others: at the highest dose activation (PINK1 increase), actives largely listed as activators | 410,000 compounds, 0.2% hits | AID 624263; active = well fitted activation curve with a large enough effect; inconclusive = small, poorly fitted or top-dose-only effect; inactive = flat fitted curve, though single readings scatter; cell line not stated here;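 also: potency is read from the fitted curve at half-maximal effect; % of control where 0% means no effect; nearly all actives have a fitted effect of over 65% in size; a mitochondrial uncoupler was the plate control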
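Decision-based qHTS: stable cells, 24 h exposure to five compound concentrations, CCCP as control. Fixed cells stained for PINK1 plus nuclear, mitochondrial and cell markers, cytometer read.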
* marks the source's active call; other numbers are inactive results; ? = inconclusive; . = not tested or not shown; & = joins results of further samples; [ ] = remark or other dose.

compound	CtBP-E1A inh	D2 PAM	Six1-Eya2 inh	D2 agonist	TRPV1 PAM	Sfp inh	PINK1 expr mod
O=C1NC[C@H](Cc2ccccc2)N(CC2CCN(CCc3ccc(-c4ccccc4)cc3)CC2)C1=O	-5	-16	-3	-2.1	.	.	-0.4%
Cc1nc2scc(-c3ccccc3)c2c(=O)o1	6	-2	0	-3.9	5	2%	0.6%
CC1=C(C(=O)N(C)C)CC(CC(=O)NCCc2ccccn2)C(=O)N1Cc1ccc(F)cc1 (stereo not given)	-17	0	8	-6.7	.	.	0.8%
O=C(Nc1cccc(C(=O)Nc2ccccc2F)c1)c1ccccc1	6	-1	3	0.1	2	18%	1.6%
CN1CCN(S(=O)(=O)c2ccc3c(c2)oc(=O)n3C)CC1	1	-1	0	-4.8	?	3%	1.2%
Cc1scc(-c2n[nH]c(=S)n2Cc2ccccc2)c1C	-3	-18	-1	-3.4	0	-1%	-0.5%
CCOC(=O)C1=C(C)NC(=S)N(C(C)=O)C1c1ccc(OC)c(OC)c1 (stereo not given)	6	3	-4	3.7	27	12%	-1.3%
CC1(C)Cc2nc(NC3CCCCC3)c(C#N)cc2CO1	12	-67	7	-0.1	-6	18%	13%
CCCCn1c(N)c(N(CC(C)C)C(=O)c2ccc(-c3ccc(Cl)cc3)o2)c(=O)[nH]c1=O	2	-2	6	-1.7	16	.	-0.4%
CCn1nc(C(=O)NNC(=O)C2CSC3(C)CCC(=O)N23)c2ccccc2c1=O (stereo not given)	.	-3	5	-2.5	-3	.	2.7%

Random excerpt: five records from the list, in no set order.
compound	CtBP-E1A inh	D2 PAM	Six1-Eya2 inh	D2 agonist	TRPV1 PAM	Sfp inh	PINK1 expr mod
Cc1nc2scc(-c3ccccc3)c2c(=O)o1	6	-2	0	-3.9	5	2%	0.6%
CN1CCN(S(=O)(=O)c2ccc3c(c2)oc(=O)n3C)CC1	1	-1	0	-4.8	?	3%	1.2%
CCOC(=O)C1=C(C)NC(=S)N(C(C)=O)C1c1ccc(OC)c(OC)c1 (stereo not given)	6	3	-4	3.7	27	12%	-1.3%
Cc1scc(-c2n[nH]c(=S)n2Cc2ccccc2)c1C	-3	-18	-1	-3.4	0	-1%	-0.5%
CC1=C(C(=O)N(C)C)CC(CC(=O)NCCc2ccccn2)C(=O)N1Cc1ccc(F)cc1 (stereo not given)	-17	0	8	-6.7	.	.	0.8%

Following part:
compound	CtBP-E1A inh	D2 PAM	Six1-Eya2 inh	D2 agonist	TRPV1 PAM	Sfp inh	PINK1 expr mod
COc1cccc(OC)c1NC(=O)C1CCCN1C(=O)Nc1ccccc1Cl (stereo not given)	0	-31	2	-2.3	-20	-8%	3.5%
COc1ccc(/C=C(\NC(=O)c2ccccc2)C(=O)N2CCN(C)CC2)cc1OC	-4	-10	1	-0.5	20	1%	0.9%
COc1ccc(F)cc1-c1cc(C(=O)NCc2ccc(F)cc2)[nH]n1	2	-18	-8	3.4	.	.	-0.9%
CCOc1ccc(NC(=O)C2CCN(S(=O)(=O)c3ccc4c(c3)C(C)(C)C(=O)N4C)CC2)cc1	2	-10	2	-3.4	?	9%	7.0%
Cc1noc(C)c1C(=O)Nc1ccc2c(c1)CCC2	-10	-2	-6	-0.4	6	-1%	-1.9%[38.3 µM]
Cn1nc(C(=O)NNC(=O)c2cccc(Cl)c2)c2ccccc2c1=O	-2	-3	0	-3.1	.	.	2.1%
CCOC(=O)C1=C(CN2CCN(C(=O)c3ccco3)CC2)NC(=O)NC1c1ccc(F)cc1 (stereo not given)	8	-2	6	-2.2	-18	6%	3.1%
Cc1c(OC(C)C(=O)NCC(O)c2ccccc2)ccc2c3c(c(=O)oc12)CCC3 (stereo not given)	-27	7	-11	-0.2	-17	10%	5.5%
CCNC(=O)C1(C)CCCN1Cc1c(F)cccc1F (stereo not given)	0	-17	-12	-1.1	.	.	-0.4%
COc1ccccc1CNc1ccccc1F	22	-2	18	-0.1	-1	3%	2.0%
COCC(=O)NCCc1nc2ccccc2[nH]1	2	-3	1	-4.5	1	11%	2.1%
CC1(C)O[C@@H]2C[C@H]3[C@@H]4CCC5=CC(=O)CC[C@]5(C)[C@@]4(F)[C@@H](O)C[C@]3(C)[C@]2(C(=O)CCl)O1	1	8	8	1.5	-3	.	2.3%
OCCCN1CCN(CCCOc2ccccc2-c2ccccc2)CC1	7	-33	2	-4.5	7	12%	2.6%
CCOC(=O)c1cc(-c2ccccc2)sc1NC(=O)c1cc(OC)c(OC)c(OC)c1	15	-4	1	-1.2	9	-10%	1.7%
CC(=O)COc1ccc2c(-c3ccccc3)cc(=O)oc2c1C	-15	-3	25	2.9	-13	-10%	-1.3%
O=C(NNC(=O)c1cc(F)c(F)cc1Cl)c1ccc(NS(=O)(=O)c2cccs2)cc1	.	-3	-7	-5.1	12	.	2.1%
COCCN(C(=S)Nc1cccc(C)c1)C(C)c1cccnc1 (stereo not given)	2	-4	-2	-0.5	1	5%	-0.6%
COc1cc(C(=O)NCc2nnc(SCC(=O)NC3CCCCC3)o2)cc(OC)c1OC	5	-9	-2	0.2	-4	8%	2.4%
CCN(c1ccccc1)S(=O)(=O)c1ccc(Cl)c(NC(=O)COC(=O)c2ccc(Cl)c(N)c2)c1	-16	-14	-13	0.3	27	16%	9.1%
OC(COC(c1ccc(Cl)cc1)c1ccc(Cl)cc1)CN1CCc2ccccc2C1 (stereo not given)	1	-15	2	-2.2	-5	-11%	4.0%
CCCCNC(=O)Nc1nnc(-c2ccc(OCC)cc2)o1	-2	2	0	-3.4	2	20%	-2.3%
CCN(CC)S(=O)(=O)c1cccc(C(=O)NNC(=O)C2=NN(c3ccccc3)C(=O)CC2)c1	2	-3	-5	0.2	14	14%	-0.8%
S=C(Nc1ccc(Cl)cc1)Nc1ccc2cn[nH]c2c1	-3	-1	-7	-1.1	-4	?	0.4%
Cc1ccc(Cl)c(OCC(=O)Nc2cccnc2)c1	-3	-5	0	-0.7	-12	9%	1.0%
Cc1ccc(CNC(=O)CN2C(C)CCCC2C)cc1 (stereo not given)	-10	-13	-1	-0.1	-5	-3%	1.2%
Cc1ccc(C)c(OCc2cc(C(=O)N3CCN(C4CCCCC4)CC3)no2)c1	-3	-1	-15	?	.	.	3.1%
CN(/N=C/c1cc(Br)cc(Br)c1O)c1ccccc1	2	0	-1	-0.9	?	-18%	3.6%
CCc1ccc(/C=C2\SC(=S)N(CCC(=O)N3CCN(C)CC3)C2=O)cc1	.	-6	5	-6.2	2	9%	11%
Cc1cc(C)n(-c2cc(N3CCN(C(=O)c4cccc(F)c4)CC3)ccc2[N+](=O)[O-])n1	7	-16	-2	-0.8	-8	0%	0.3%
COc1ccc(NC2CS(=O)(=O)CC2OC(=O)c2ccc(F)cc2)cc1 (stereo not given)	0	-1	-2	-2.3	-13	7%	3.0%[38.3 µM]
O=C(Cc1ccccn1)Nc1ccccc1	18	-6	19	-3.3	1	14%	2.3%
O=C(CN1C(=O)c2cccc3cccc1c23)NCc1ccc2c(c1)OCO2	4	0	5	-1.3	-4	-4%	-0.5%[38.3 µM]
CCN(CC)C(=O)c1ccc(S(=O)(=O)Cc2ccc(C)cc2)c([N+](=O)[O-])c1	-15	-1	?	9.3	-4	6%	-0.4%
COc1ccc(CN2C(=O)c3ccccc3C2=O)cc1C(=O)N(C)CC(=O)Nc1ccc(C)cc1	4	-9	-2	-2.3	.	.	0.6%
CCOc1cc(N2CCOCC2)c(OCC)cc1NC(=O)C1=COCCO1	2	-3	-2	-5.2	-7	.	-1.1%
Cc1ccc(NC(=O)C2=C(O)CCn3c2nc2ccccc23)cc1	8	0	-9	-0.4	11	-12%	5.5%[38.3 µM]
NS(=O)(=O)c1ccc(CCNC(=O)c2ccccc2F)cc1	-11	-8	-7	-4.1	7	-6%	3.1%[38.3 µM]
CC1(C2CC2)NC(=O)N(CC(=O)N2CCN(S(=O)(=O)c3ccc(F)c(F)c3)CC2)C1=O (stereo not given)	18	-13	-12	0.0	-4	.	1.4%
COc1ccc(N)cc1C#N	-1	-7	4	-2.4	9	-12%	0.1%
COc1cccc(C(=O)NCCCNC(=O)c2cccnc2)c1	-1	-1	6	-4.0	-6	16%	0.2%
CCc1ccc(CNC(=O)C2CCCN(c3nnc(C)c4c(C)n(-c5ccccc5)nc34)C2)cc1 (stereo not given)	.	3	-2	5.8	-15	56µM*	0.9%&3.9%
CCOC(=O)c1c(C)[nH]c(C(=O)OCC(=O)c2ccc3c(c2)NC(=O)CO3)c1C	7	5	1	-1.2	2	.	?
COCCNC(=S)N=Nc1c(O)[nH]c2ccc([N+](=O)[O-])cc12	-7	1	-16	1.0	5	13%	-0.4%
CCCNC(=O)C1(C)CCCN(C(=O)c2ccccc2F)C1 (stereo not given)	8	-7	8	-5.8	.	.	0.6%
Cc1ccc(NC(=O)COC(=O)C2CC3CCCC(C2)C3=O)c([N+](=O)[O-])c1 (stereo not given)	-24	-1	-2	1.0	4	.	-0.4%

Some of these compounds in order of molecular weight, smallest number first:
compound	CtBP-E1A inh	D2 PAM	Six1-Eya2 inh	D2 agonist	TRPV1 PAM	Sfp inh	PINK1 expr mod
COc1cccc(C(=O)NCCCNC(=O)c2cccnc2)c1	-1	-1	6	-4.0	-6	16%	0.2%
COCCNC(=S)N=Nc1c(O)[nH]c2ccc([N+](=O)[O-])cc12	-7	1	-16	1.0	5	13%	-0.4%
CCOC(=O)c1c(C)[nH]c(C(=O)OCC(=O)c2ccc3c(c2)NC(=O)CO3)c1C	7	5	1	-1.2	2	.	?
